RE007 growth inh: less growth of the S. pombe RE007 Vpr strain; S. pombe RE007 Vpr strain, BacTiter-Glo ATP luminescence, 24 h; control for the full effect not named in the record; Potency, µM (titrated, usually from 92.2 µM), for the others: at the highest dose activity change, negative = less growth; 360,000 tested, 0.21% active; active = well fitted falling curve with a large enough effect; inconclusive = small, poorly fitted or top-dose-only effect; inactive = no such curve, though single readings can be large or run the other way;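 further: nearly all actives have a fitted effect of over 50% in size; the assay follows cell death caused by Vpr and the record does not say whether a fall means rescue or toxicity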
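Fission yeast RE007 carrying one integrated HIV-1 vpr copy, seeded at OD 0.01 in PMG+AL medium with 23 nL pinned compound. Grown 24 h at 30 degrees; viability read by BacTiter-Glo luminescence after 5 min.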
2A StopGo: lowers the luciferase signal of an FMDV 2A StopGo reporter; human cells with a luciferase reporter of 2A StopGo recoding; control for the full effect not named in the record; Potency, µM (series often up to 57.9 µM), inactives show at the top dose signal change, negative = less light; 410,000 tested, 1.2% active; AID 1159524; active = well fitted falling curve with a large enough effect; inconclusive = small, poorly fitted or top-dose-only effect; inactive = no such curve, though single readings can be large or run the other way; tested in HEK293T cells; further: nearly all actives have a fitted effect of over 45% in size; luciferase light after 4 h
Active calls of the source: *; [ ] = dose if it differs, or a comment. On the % scale 0 is the no-effect control and ±100 the full control effect; potency means the concentration at half of the fitted maximal effect.

How did CCCCCCCCN1[C@@H](CC(=O)OCC)c2ccc(C(F)(F)F)cc2S1(=O)=O do in these assays?
RE007 growth inh: -0.3%; 2A StopGo: -19.1%

Results for COc1ccc(NC(=O)N(C)C[C@H]2OCc3cnnn3CCCC(=O)N([C@@H](C)CO)C[C@H]2C)c(OC)c1 ?
RE007 growth inh: 16.4%; 2A StopGo: 0.0%

What do the screens show for `CCN(c1ccccc1)S(=O)(=O)c1ccc(Cl)c(NC(=O)CSc2nc(N)cc(=O)[nH]2)c1`?
RE007 growth inh: 7.9%; 2A StopGo: -29.8%

Results for COc1ccc(NC(=O)c2sc(=O)n(Cc3ccc(S(=O)(=O)N(C)C)cc3)c2C)cc1 ?
RE007 growth inh: 5.2%[18.4 µM]; 2A StopGo: inconclusive

What do the screens show for `COC1CC2C=C(C)C=CC=CC(=O)NC(c3ccccc3)CC=CCCC(O)CC(=O)C2=C1O` (stereo not drawn)?
RE007 growth inh: inconclusive; 2A StopGo: 2.51µM*

Results for CCNC(=O)C1(C)CCCN(C(=O)c2sccc2C)C1 (stereo not drawn) ?
RE007 growth inh: -2.7%; 2A StopGo: -10.8%

How did CC[C@@H](NC(=O)[C@H](Cc1ccccc1)NC(=O)CC[C@H]1O[C@@H](n2ccc(=O)[nH]c2=O)[C@H](O)[C@@H]1O)c1ccccc1 do in these assays?
RE007 growth inh: -8.5%; 2A StopGo: -10.7%

What do the screens show for `CCOc1ccc(S(=O)(=O)NCCC(=O)N2CCN(C(C)=O)CC2)cc1`?
RE007 growth inh: 12.1%; 2A StopGo: 0.0%

Results for COc1cc2c(NCCCCCO)ncnc2c(OC)c1OC ?
RE007 growth inh: -1.7%; 2A StopGo: -23.2%

What do the screens show for `CC1=C(C(=O)N2CCOCC2)CC(CC(=O)NCCCCc2ccccc2)C(=O)N1CCCN1CCCC1=O` (stereo not drawn)?
RE007 growth inh: 25.2%; 2A StopGo: -27.4%

Results for CCCCN(C=O)c1c(CC)nc2ccc(C(=O)N(C)Cc3ccco3)cn12 ?
RE007 growth inh: 4.0%[18.4 µM]; 2A StopGo: 9.0%

What do the screens show for `Cc1cc(C)c2c(=O)n3c(nc2c1)C(CC(C)C)NC(=O)c1cccnc1-3` (stereo not drawn)?
RE007 growth inh: 1.1%; 2A StopGo: inconclusive

How did Cc1cccc(C)c1-n1nnnc1C(c1cccc2ccccc12)N1CCC(n2c(=O)[nH]c3ccccc32)CC1 (stereo not drawn) do in these assays?
RE007 growth inh: 6.3%; 2A StopGo: -17.1%

What do the screens show for `C[C@H](CO)N1C[C@H](C)[C@@H](CN(C)Cc2ccc3cccnc3c2)OCc2cnnn2CCCC1=O`?
RE007 growth inh: -10.9%; 2A StopGo: 2.0%

How did CNC(=O)c1ccc(CN(C)C(=O)c2cc(C3CC3)nc3c2cnn3C(C)C)cc1 do in these assays?
RE007 growth inh: -1.1%; 2A StopGo: -26.6%

Results for CC(C)NC(=O)C1(C)CCN1C(=O)c1ccccc1Oc1ccccc1 (stereo not drawn) ?
RE007 growth inh: 22.2%; 2A StopGo: -15.9%

How did COC(=O)C1Cc2c([nH]c3ccccc23)C2CCC(=O)N12 (stereo not drawn) do in these assays?
RE007 growth inh: 0.9%; 2A StopGo: -6.2%

How did CC1CCCN(S(=O)(=O)c2cc(C(=O)NCCc3ccc(S(N)(=O)=O)cc3)ccc2Cl)C1 (stereo not drawn) do in these assays?
RE007 growth inh: 8.1%; 2A StopGo: 17.8µM*

How did COc1ccc(-c2csc(C(O)(c3ccccc3)C(F)(F)F)n2)cn1 (stereo not drawn) do in these assays?
RE007 growth inh: -4.0%; 2A StopGo: -12.7%

What do the screens show for `C#CCOCC1CNC(=S)O1` (stereo not drawn)?
RE007 growth inh: -13.2%; 2A StopGo: -8.8%

How did C[C@@]12C(=O)N(CC3CCCO3)CC(=O)N1[C@@H]1c3ccccc3OC[C@@H]1[C@@H]2c1ccccc1 (stereo partly drawn) do in these assays?
RE007 growth inh: 5.8%; 2A StopGo: -17.9%

What do the screens show for `COc1ccc(C(O)c2nc(-c3ccc(F)cc3OC)cs2)cc1` (stereo not drawn)?
RE007 growth inh: -6.6%; 2A StopGo: -24.2%

What do the screens show for `COc1ccc(C(=O)N2CCCC(c3cc(C(=O)NCc4ccccc4)no3)C2)cc1` (stereo not drawn)?
RE007 growth inh: 37.4%; 2A StopGo: -25.0%

Results for COc1ccc(CCNC(=O)C2CC3Cn4c(nc5ccccc54)C3N2Cc2ccccc2)cc1 (stereo not drawn) ?
RE007 growth inh: -11.7%; 2A StopGo: -10.5%

Results for Cc1cn(CC(=O)NCCCN2CCCC2=O)c(=O)[nH]c1=O ?
RE007 growth inh: -12.9%; 2A StopGo: -8.0%

What do the screens show for `COC(=O)C[C@H]1CC[C@H]2NC[C@@H](O)COC[C@@H]2O1`?
RE007 growth inh: 12.6%; 2A StopGo: -17.4%

How did Cc1ccc2c(CC(=O)Nc3ccc4nc(N5CCOCC5)sc4c3)coc2c1 do in these assays?
RE007 growth inh: -9.1%; 2A StopGo: 3.9%

Results for O=C(Nc1nnc([C@@H]2C[C@H](O)[C@@H](CO)O2)s1)c1cccc(Oc2ccccc2)c1 ?
RE007 growth inh: -14.2%; 2A StopGo: -1.9%

Results for Cc1cccc(C)c1NC(=O)C1(C)CSCC(=O)N1CCc1ccccc1 (stereo not drawn) ?
RE007 growth inh: 0.0%; 2A StopGo: -10.7%

How did COc1ccc(C(C)(O)c2nc(-c3cccc(NC(C)=O)c3)cs2)cc1 (stereo not drawn) do in these assays?
RE007 growth inh: 0.4%[18.4 µM]; 2A StopGo: -3.2%

Results for Cc1ccc(C(=O)OCC(=O)NCc2ccc(Cl)cc2)s1 ?
RE007 growth inh: -2.5%; 2A StopGo: -5.3%

Results for CN(C)CCN(Cc1ccccc1)C(c1cc2ccccc2o1)c1nnnn1C(C)(C)C (stereo not drawn) ?
RE007 growth inh: -0.9%; 2A StopGo: -5.8%

What do the screens show for `COc1cccc(C(O)c2nc(-c3ccc4ccccc4c3)cs2)c1` (stereo not drawn)?
RE007 growth inh: -3.3%; 2A StopGo: 22.2%

How did O=C(NCc1cccnc1)C1Cc2c(-c3ccc(Cl)cc3)ccnc2O1 (stereo not drawn) do in these assays?
RE007 growth inh: -16.6%; 2A StopGo: -7.3%

How did COC(C/C=C\[C@@H](O)[C@H](C)OCc1ccccc1)OC do in these assays?
RE007 growth inh: 11.2%; 2A StopGo: 12.5%

Results for CNC(=O)C1Cc2c(-c3ccc(Cl)cc3)ccnc2O1 (stereo not drawn) ?
RE007 growth inh: -3.5%; 2A StopGo: -20.6%

How did CC(C)[C@@H]1Cc2[nH]n(C)c(=O)c2[C@H](c2ccc(Cl)cc2)O1 do in these assays?
RE007 growth inh: -3.1%; 2A StopGo: -11.2%

What do the screens show for `O=S1(=O)CCOC[C@H](Cc2ccccc2)N1Cc1cccc(F)c1`?
RE007 growth inh: -10.3%; 2A StopGo: -14.7%

What do the screens show for `COc1ccc(Cc2c(-c3ccc(C)cc3)nc3c(C)cc(Br)cn23)c(C)c1`?
RE007 growth inh: -6.8%; 2A StopGo: -2.7%

What do the screens show for `Cc1ccccc1OCCOC(=O)c1cc(S(=O)(=O)N2CCOCC2)ccc1C`?
RE007 growth inh: 4.3%; 2A StopGo: -27.4%

Results for CCOC(=O)[C@H]1[C@H]2COc3ccc(Br)cc3[C@@H]2N2C(=O)CN(C)C(=O)[C@@]12C ?
RE007 growth inh: -15.6%; 2A StopGo: -0.9%

Results for ONC(=Nc1ccccc1Cl)c1c(F)cccc1F ?
RE007 growth inh: 3.3%; 2A StopGo: -22.5%

How did COc1ccc(N2c3ccccc3CN(Cc3ccccc3)[C@@H](C)[C@H]2Cc2ccc(-c3ccccc3)cc2)cc1 do in these assays?
RE007 growth inh: -4.2%; 2A StopGo: -15.4%

How did COc1ccc(C(=O)c2[nH]c(N)c(C(=O)NCCc3c[nH]c4ccccc34)c2-c2ccccc2Br)cc1 do in these assays?
RE007 growth inh: 9.7%; 2A StopGo: inconclusive

Results for CCOC(=O)C1(C)CCN1C(=O)c1ccc2ccccc2c1 (stereo not drawn) ?
RE007 growth inh: 0.3%; 2A StopGo: 33.8%[activator]

Results for O=[N+]([O-])c1nccn1CC(O)CN1CC1 (stereo not drawn) ?
RE007 growth inh: 12.3%; 2A StopGo: -1.1%

What do the screens show for `CCOC(=O)[C@]12Cc3cc(OC)ccc3[C@H]1N(Cc1ccccc1)C(=O)c1ccccc12`?
RE007 growth inh: -0.2%; 2A StopGo: 0.0%

Results for Cn1c(=O)n(C)c2cc(CNC(=O)[C@H]3O[C@@H](n4ccc(=O)[nH]c4=O)[C@H](O)[C@@H]3O)ccc21 ?
RE007 growth inh: 1.5%; 2A StopGo: 50.9%[activator]

Results for CCCNC(=O)C1(C)CCCN(C(=O)c2cc(F)cc(F)c2)C1 (stereo not drawn) ?
RE007 growth inh: -5.0%; 2A StopGo: -14.3%

How did O=C(CC1(O)C(=O)Nc2ccc(Br)cc21)c1ccccc1 (stereo not drawn) do in these assays?
RE007 growth inh: -21.1%; 2A StopGo: -5.8%

Results for COc1ccccc1-c1cc2nc(-c3ccccc3)cc(N3CCN(C(=O)c4ccco4)CC3)n2n1 ?
RE007 growth inh: 0.9%; 2A StopGo: 4.47µM*

How did CN[C@H]1CCc2cc(OC)c(OC)c(OC)c2-c2ccc(OC)c(=O)cc21 do in these assays?
RE007 growth inh: -16.3%[18.4 µM]; 2A StopGo: -8.1%

Results for O=C(C(=O)N1CCC(Cc2ccccc2)CC1)c1cccc(Br)c1 ?
RE007 growth inh: -7.7%; 2A StopGo: -9.4%

Results for Cc1ccc(S(=O)(=O)NN=C(c2ccccc2)c2cccs2)cc1 ?
RE007 growth inh: -1.1%; 2A StopGo: 15.4%

How did CCCCN(C=O)c1c(CC)nc2ccc(C(=O)NCCOc3ccc(OC)cc3)cn12 do in these assays?
RE007 growth inh: 5.2%; 2A StopGo: 19.9%

Results for CCOc1ccc(CCN2C(=S)N([C@@H](CC(C)C)CN3CCC[C@@H]3CN3C(=S)NC[C@@H]3CC(C)C)C[C@@H]2CC(C)C)cc1 ?
RE007 growth inh: 1.7%; 2A StopGo: -24.2%

What do the screens show for `CCCc1c(-c2ccc(F)cc2F)ncn1Cc1ccccc1OC`?
RE007 growth inh: inconclusive; 2A StopGo: inconclusive

Results for CNc1cncc(-c2cc(OC)ccc2OC)n1 ?
RE007 growth inh: 13.3%; 2A StopGo: 0.0%

Results for CC(=O)Nc1ccc(CN(C)c2c(C)nc3ccc(C(=O)NC4CCN(Cc5ccccc5)CC4)cn23)cc1 ?
RE007 growth inh: -20.0%[18.4 µM]; 2A StopGo: -18.2%

How did CC1(C(=O)NCc2ccc(Cl)cc2)CCN1C(=O)Cc1cccc2ccccc12 (stereo not drawn) do in these assays?
RE007 growth inh: -0.6%; 2A StopGo: -15.8%

Results for COC(=O)[C@H]1C[C@H](OC(=O)NCc2ccc(OC)c(OC)c2)[C@@]2(O)CN(S(=O)(=O)c3ccc(C)cc3)CC2[C@H]1C(=O)OC (stereo partly drawn) ?
RE007 growth inh: -4.7%; 2A StopGo: -1.2%

Results for FC(F)C(F)(F)Oc1cccc(Nc2nccn3c(-c4cccc5cccnc45)cnc23)c1 ?
RE007 growth inh: -10.4%; 2A StopGo: 0.0%

What do the screens show for `COc1cccc(SCc2noc(C(=O)NCC3CC3)c2C(=O)NCC2CC2)c1`?
RE007 growth inh: -1.7%; 2A StopGo: -13.1%

Already shown: an excerpt of the list.
Results for COc1ccccc1-c1cc2nc(-c3ccccc3)cc(N3CCN(C(=O)c4ccco4)CC3)n2n1 ?
RE007 growth inh: 0.9%; 2A StopGo: 4.47µM*

How did CN[C@H]1CCc2cc(OC)c(OC)c(OC)c2-c2ccc(OC)c(=O)cc21 do in these assays?
RE007 growth inh: -16.3%[18.4 µM]; 2A StopGo: -8.1%

Results for O=C(C(=O)N1CCC(Cc2ccccc2)CC1)c1cccc(Br)c1 ?
RE007 growth inh: -7.7%; 2A StopGo: -9.4%

Results for Cc1ccc(S(=O)(=O)NN=C(c2ccccc2)c2cccs2)cc1 ?
RE007 growth inh: -1.1%; 2A StopGo: 15.4%

How did CCCCN(C=O)c1c(CC)nc2ccc(C(=O)NCCOc3ccc(OC)cc3)cn12 do in these assays?
RE007 growth inh: 5.2%; 2A StopGo: 19.9%

These rows are one share of the data; count on the stated rates, not on these rows.
